Bioassay records from PubChem.
Vaccinia pol inh: blocks vaccinia virus processive DNA synthesis; normalized absorbance, % (no concentration beside the values); hit rate 0.94% among 46,000; in vitro processive DNA synthesis, absorbance read-out; stronger effect = lower value; some inactives read as strong as hits; AID 493162;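 active = replicate mean up to 90% and picked by the depositor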;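 note: 100% = median of the test wells of a plate; 100 nL library stock went into each well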
* hit, by the source's call. Only part of the results is shown; rates above refer to the full screens.

canonical_smiles,Vaccinia pol inh
COc1ccc(CC(=O)N(CC#N)CC#N)cc1OC,94.4
CSc1cccc(N2CC(C(=O)O)CC2=O)c1 (stereo unspecified),99.7
COc1ccccc1NC(=O)c1ccc2c(c1)C(=O)N(CC1CCCO1)C2=O (stereo unspecified),99.8
Cc1c(S(=O)(=O)N2CCCC2c2ccc(F)cc2)cnn1-c1ccccc1 (stereo unspecified),92.1
Cc1onc(-c2c(Cl)cccc2Cl)c1NC(=O)N1CCCC1=O,99.4
CCOC(=O)c1sc(NC(=O)CC)nc1C,100.2
Cc1ncc(CO)c2cc(C(=O)NC3=CC4OCOC4C=C3)c(=Nc3ccccc3)oc12 (stereo unspecified),100.0
CC(C)C1N=C2c3ccccc3N=C(SCC(=O)c3ccc(Br)cc3)N2C1=O (stereo unspecified),99.5
CN(C)S(=O)(=O)c1ccc(C(=O)Nc2sc3c(c2C#N)CCC3)cc1,105.6
Fc1ccccc1-c1ncc2ccccn12,100.0
c1ccc2c(c1)CCCN2Cc1cn2ccccc2n1,90.7
O=C(Cc1ccccc1)Sc1ncn[nH]1,100.3
O=C1C=CC(=NS(=O)(=O)c2cccs2)C=C1,101.0
CC(NC(=O)c1ccc(N(C)C)cc1)C(c1cccs1)N1CCN(C)CC1 (stereo unspecified),92.5
c1ccc(Nc2nc(Nc3ccccc3)nc(Sc3nc4ccccc4[nH]3)n2)cc1,100.4
FC(F)(F)c1nnc2ccc(-n3ccnc3)nn12,100.5
CCC(=O)c1c[nH]c(C(=O)NCc2cccs2)c1,98.5
CC1=C(C(=O)Nc2ccccc2Br)C2(CCCCC2)OC1=O,99.1
CC(=O)Nc1c(C(=O)c2ccccc2)oc2ccccc12,100.4
CN(C(=O)N1c2ccccc2Sc2ccccc21)c1ccccc1,99.9

The results go on:
canonical_smiles,Vaccinia pol inh
CCOc1ccc(NC(=O)NCCCN2CCCC2)cc1,103.2
Cc1ccc(N(C2C=CS(=O)(=O)C2)S(=O)(=O)c2ccccc2)cc1 (stereo unspecified),78.2
COc1ccc(C(=S)N2CCCCC2)cc1OC,99.8
C/C=C/c1n(C)c2ccccc2[n+]1C,103.1
CCCC(CCC)C(=O)N1CCNc2ccccc2C1,97.9
O=C(c1nnc(Cc2ccc(F)cc2Cl)o1)N1CCCC1,104.1
O=C(Nc1ccc2c(c1)nc1n2CCN(Cc2ccccc2)C1)C1CCCCC1,93.1
O=C(CN(CCc1ccccc1)S(=O)(=O)c1ccc(Br)cc1)NC1CC1,99.2
NS(=O)(=O)c1ccc(CCNC(=O)c2cc3c(s2)-c2ccccc2OC3)cc1,101.1
CCCCc1nc2ccccc2c(=O)n1-c1ccc(C)cc1,87.7
COc1ccc(OCCN2C(=O)CNC2=S)cc1,104.4
CCN(CC)C(=O)c1ccc2c(c1)OCO2,98.5
COc1cccc(/C=C2\SC(=S)N(CCCC(=O)NC(C)(C)C)C2=O)c1,99.7
CCc1cc(-c2n[nH]c(C)c2-c2nc3ccccc3n2C)c(O)cc1O,100.6
Cc1cc(-c2nnc(-c3ccc(Cl)cc3)o2)no1,98.6
COc1cc2nc(SCc3ccc(F)cc3)n3nc(-c4ccccc4)nc3c2cc1OC,101.5
OC(CCN1CCCCC1)(c1ccccc1)C1CCCCC1 (stereo unspecified),99.8
Cc1ccc2nc(-c3ccc(C(F)(F)F)cc3)oc2c1,101.4
Cc1cccc2c1-c1sc(C(=O)NCCN3CCCCC3C)cc1CO2 (stereo unspecified),91.3
O=C(CC(C(=O)O)N1CCOCC1)Nc1ccc(Cl)cc1Cl (stereo unspecified),99.6

Shown field by field: 4 of the compounds above
> COc1cc2nc(SCc3ccc(F)cc3)n3nc(-c4ccccc4)nc3c2cc1OC
  Vaccinia pol inh = 101.5

> OC(CCN1CCCCC1)(c1ccccc1)C1CCCCC1 (stereo unspecified)
  Vaccinia pol inh = 99.8

> Cc1ccc2nc(-c3ccc(C(F)(F)F)cc3)oc2c1
  Vaccinia pol inh = 101.4

> Cc1cccc2c1-c1sc(C(=O)NCCN3CCCCC3C)cc1CO2 (stereo unspecified)
  Vaccinia pol inh = 91.3

More compounds follow.
canonical_smiles,Vaccinia pol inh
Cn1c2ccccc2c2cnn(CNC(=O)Nc3ccc(F)cc3)c(=O)c21,102.0
CC(C)C(NC(=O)c1ccc(C23CC4CC(CC(C4)C2)C3)cc1)C(=O)N(C)Cc1ccco1 (stereo unspecified),100.4
Cn1cnnc1SCC(=O)c1ccc(Cl)cc1,98.1
O=C(O)CSCC(=O)Nc1nc(SCc2ccc(Cl)cc2)n[nH]1,107.6
CCn1c(N)c(C(N)=O)sc1=S,96.5
Fc1ccc(Cn2[nH]nnc2=S)cc1,97.9
CC(C)C1C(=O)OC2(C)CC(C)(C)NC(=S)N12 (stereo unspecified),97.7
Oc1c(C(c2cccnc2)N2CCCC2)ccc2cccnc12 (stereo unspecified),100.1
O=C(Nc1ccc(Cl)cc1)N1CCCN(Cc2ccccc2F)C1,95.1
CC(=O)Nc1[nH]c2c(c1C#N)CCCCC2,100.3
O=C(CSC1=NCCS1)N1CCN(c2ccccc2)CC1,105.8
O=C1c2ccccc2C(=O)N1CCCc1nc(-c2ccc(Cl)cc2)no1,88.2
COC(=O)c1ccc(-c2ccco2)n1CC(=O)NCCN1CCN(C)CC1,103.7
CC(C)(C)c1ccc(NC(=O)c2cnccn2)cc1,106.9
O=C(Cn1c(=O)n(-c2ccccc2)c(=O)c2cc(-c3ccccc3)sc21)c1cccs1,100.1
Cn1c(O)c(/C=C2\C=Nc3ccccc32)sc1=S,97.0
O=C(Nc1ccc(F)cc1)c1c(Cl)nc2ccccn12,106.4
NC12CC3CC(C1)CC(c1ccccc1)(C3)C2,98.9
COC(=O)C1CSC(c2ccc(Cl)cc2)=CC1N(C)C (stereo unspecified),78.6
CCOC(=O)c1c(/N=c2\oc3ccc4ccccc4c3cc2C(N)=O)sc2c1CCCC2,100.0

Overlap with the part before: three entries; new compounds follow.
canonical_smiles,Vaccinia pol inh
NC12CC3CC(C1)CC(c1ccccc1)(C3)C2,98.9
COC(=O)C1CSC(c2ccc(Cl)cc2)=CC1N(C)C (stereo unspecified),78.6
CCOC(=O)c1c(/N=c2\oc3ccc4ccccc4c3cc2C(N)=O)sc2c1CCCC2,100.0
Nc1nc(CSc2nc3ccccc3s2)nc(Nc2ccccc2)n1,98.7
Cc1ccc2nc(NC(=O)C3CC(O)CN3C(=O)Oc3ccccc3)sc2c1 (stereo unspecified),100.2
CCN1C(=O)c2cccc3c(S(=O)(=O)Nc4ccccc4)ccc1c23,100.2
O=C(Oc1ccc(C=Nc2ccc(F)c(F)c2F)cc1)c1cccnc1,108.2
COc1ccc(-c2ccc(CCC(=O)O)n2C(C)C)cc1,97.9
COC(=O)c1ccc(CSc2ccccc2C)o1,93.0
CC(C)CCNS(=O)(=O)c1ccc2[nH]c3c(c2c1)CCCC3,92.2
COc1ccccc1C(=O)Nc1ccc(C)cc1C,99.1
Cc1ccc(OCCC(=O)O)cc1,111.7
Cc1nc2ccccc2c(=O)n1-c1nc2ccccc2n1C,102.0
Oc1ccc(Br)cc1C=Nc1cc2c(cc1Br)OCCO2,99.8
O=C(COC(=O)c1cccnc1Cl)c1ccccc1Br,101.9
CC(=O)CC(c1ccccc1)c1c(O)c2ccccc2oc1=O (stereo unspecified),99.5
O=C1CCN(Cc2ccccc2)C(=O)N1c1ccccc1,105.9
CC1(c2ccc(F)cc2)CC(=O)c2cc(O)ccc2O1 (stereo unspecified),100.2
C=CCNC(=O)c1scc2c1CCCC2,101.1
FC(F)(F)c1cc(N2CCC(n3cccc3)CC2)c2ccccc2n1,93.0
O=C(CN1C(=O)C2C3C=CC(C3)C2C1=O)N1CC=C(c2ccccc2)CC1 (stereo unspecified),100.5
N#Cc1c2c(c(N3CCCCC3)n3c1nc1ccccc13)CCC2,91.5
O=C(NCCCN1CCOCC1)c1ccc(CN2C(=O)CCn3nccc32)cc1,100.9

Shown field by field: 2 of the compounds above.
O=C1CCN(Cc2ccccc2)C(=O)N1c1ccccc1
  Vaccinia pol inh: 105.9

CC1(c2ccc(F)cc2)CC(=O)c2cc(O)ccc2O1 (stereo unspecified)
  Vaccinia pol inh: 100.2

Continued.
canonical_smiles,Vaccinia pol inh
COc1ccc(CN2C(=O)CC(Cc3ccc(C)cc3)C2=O)cc1OC (stereo unspecified),100.1
N=c1cc(C2(O)CCCCC2)n2c(nc3ccccc32)s1,84.3
CC1CN(CCc2ccccc2)c2nc3c(c(=O)n(CC(N)=O)c(=O)n3C)n2C1 (stereo unspecified),93.6
COc1ccc(N2CC(=O)N(/N=C/c3ccccc3C(=O)O)C2=S)cc1,100.4
CN1/C(=C\C(=O)NC2CCCCC2)C(C)(C)c2ccccc21,105.0
CCOC(=O)C(C)Sc1nc(N)nc(SC)c1C#N (stereo unspecified),100.2
COc1ccc(-c2noc(N3CCCC(C(=O)NCCCN4CCC(C)CC4)C3)n2)cc1 (stereo unspecified),99.7
C[N+](C)(C)CC1CCCC1O (stereo unspecified),100.1
COC(=O)C1=C(C)NC2=C(C(=O)CCC2)C1c1c(F)cccc1F (stereo unspecified),103.1
CC1CCCN(CC(O)COCc2ccc3c(c2)OCO3)C1 (stereo unspecified),94.4
CCn1cc(C(=O)O)c(=O)c2cc(F)c(N3CCN(C(=O)c4ccc(F)cc4)CC3)cc21,99.4
O=C1C2C3C=CC(C3)C2C(=O)N1CNc1ccc(O)cc1 (stereo unspecified),99.8
Cc1ccc(OCC(=O)NC2CCS(=O)(=O)C2)cc1 (stereo unspecified),99.8
CCc1ccc(NC(=O)CCS(=O)(=O)c2cccc3nonc23)cc1,94.5
CN(C)S(=O)(=O)c1cccc2nsnc12,99.6
Cc1cccc(-n2ncc3c(NC(C)(C)C)ncnc32)c1,99.5
N#CCc1nc(-c2ccc(Cl)c(Cl)c2)cs1,97.4
O=C(N=c1scc(-c2ccccc2)n1-c1ccccc1)c1ccccc1,99.6
CC(C)OC(=O)c1ccc(NC(=O)c2ccc(Cn3cc(Cl)cn3)cc2)cc1,99.8
CC1CCCN(C(=O)COC(=O)c2ccc(Cl)nc2)C1 (stereo unspecified),105.8

(list continues)
canonical_smiles,Vaccinia pol inh
O=C(Nc1ccc2ccccc2c1)c1ccccc1O,100.7
COc1ccc2[nH]c3c(=O)n(CCc4ccc(Cl)cc4)cnc3c2c1,97.3
CC1CCCN(C(=O)C2CCN(CC3CCCCC3)CC2)C1 (stereo unspecified),99.3
O=C1c2ccccc2C(=O)N1c1ccc(OC(F)(F)F)cc1,97.7
COc1ccc(CCNC(=O)CSc2c3c(nc4cc(Cl)ccc24)CCCC3)c(OC)c1,103.4
O=C(C/C(=C1/CCc2ccccc2C1=O)c1ccccc1)c1ccccc1,92.6
COC(=O)c1c(-c2snnc2C)n[nH]c1C,100.4
O=C(Nc1ccc(C(=O)OC2CCCCC2)cc1)c1ccncc1,99.3
C=CCOc1ccc(/C=C2\C(=O)N(c3ccc(Cl)c(C(=O)O)c3)N=C2C)cc1OC,98.5
CCN1C(=O)c2cccc3c(N)ccc1c23,93.9
C=CCSc1nc(N)c(C(=O)Nc2ccccc2)cc1C(N)=O,94.4
COc1ccc(S(=O)(=O)Nc2c(O)c3ccccc3oc2=O)cc1OC,103.2
Cc1nc2cc(CO)ccc2n1-c1ccccc1,102.5
Cc1sc(NC(=O)c2ccccc2)c(C(=O)N2CCCCC2)c1C,99.8
O=C(NCc1ccco1)c1cc2nc3c(c(C(F)(F)F)n2n1)CCc1ccccc1-3,95.4
CC1(C)CC(=O)C(CC(=O)Nc2cc(C(F)(F)F)ccc2Cl)C(=O)C1,97.7
N#Cc1ccccc1CSc1nsc(SCc2ccccc2C#N)c1C#N,98.8
O=S(=O)(c1ccc(-n2cnnn2)cc1)N1CCNCC1,87.3
O=c1cc(-c2ccc3c(c2)OCCO3)oc2ccc(F)cc12,85.3
COc1cccc(CN(C(=S)NCc2ccccc2)c2ccc(F)c(Cl)c2)c1O,101.0

(list continues)
canonical_smiles,Vaccinia pol inh
CCOC(=O)C1CCN(C(c2ccccn2)c2c(C)[nH]c3ccccc23)CC1 (stereo unspecified),95.3
Nc1ccnc(C(F)(F)F)c1C(=O)c1ccccc1,100.0
COC(=O)C1=CN(c2cccc(C(F)(F)F)c2)C=C(C(=O)OC)C1c1ccsc1,100.6
O=C(NC(O)C(=O)c1cccs1)c1cccnc1 (stereo unspecified),100.6
O=C(Nc1nc(-c2ccc(F)cc2)cs1)c1ccc(N2C(=O)CCC2=O)cc1,97.3
CCOC(=O)C(C(=O)Nc1ccc(Br)cc1)C1CCCCC1 (stereo unspecified),99.0
Cc1ccc(S(=O)(=O)CCC(=O)Nc2ccc(C)c(C)c2)cc1,102.0
Cc1ccccc1C(=O)N(CC#N)CC#N,101.8
O=C(CC(NC(c1ccccc1)c1ccccc1)C(=O)O)c1ccc(Cl)cc1 (stereo unspecified),98.4
CC(C)n1c(SCC(N)=O)nc2c(oc3ccccc32)c1=O,92.8
Brc1cccc(-c2nnc3sc(CNCc4ccco4)cn23)c1,98.9
C=C1C(C(=O)NCc2ccco2)C1C(=O)NCc1ccco1 (stereo unspecified),56.5*
Nc1sc2ccccc2[n+]1C(=O)OCc1ccccc1,98.7
COC(=O)Cc1csc(N)n1,91.8
